# rRNA inh HTS: reduced GFP signal of wild-type E. coli, primary screen, bacterial rRNA inhibitor project, GFP/RFP fluorescence, OD600, single point | 350,000 compounds, 1.6% hits | E. coli WT GFP vs humanized-ribosome RFP mutants, 24 h; hits give low values; DMSO median 0, no signal -100 | GFP signal change (wild-type ribosome), % (no concentration beside the values) | AID 720706, 2013;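 active = significant combined selectivity score with lowered wild-type GFP, culture density cut under 30%, mutant RFP and density less affected; inactive = any of these conditions unmet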; note: one replicate is shown; some compounds called inactive have numbers as strong as hits
# FGF22 binding: binders of human FGF22 protein, primary screen, FGF22 synaptogenesis inhibitor project, biophysical, thermal shift, single point; 340,000 compounds, 1.5% hits; recombinant FGF22 thermal shift, SYPRO orange fluorescence; percent of sucrose octasulfate shift, DMSO zero; calls only at 9.99 µM; AID 651658, 2012;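 active = melting point raised past a set limit in the mean and every replicate; three in four hits are not shown here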
# Target sequence (Q9HCT0 whole entry, looked up): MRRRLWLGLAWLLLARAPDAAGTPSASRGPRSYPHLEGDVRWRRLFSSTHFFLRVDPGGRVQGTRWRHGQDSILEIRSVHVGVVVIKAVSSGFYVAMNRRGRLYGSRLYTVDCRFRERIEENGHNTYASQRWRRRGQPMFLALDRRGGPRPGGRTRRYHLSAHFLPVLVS
# MLL AF4-AF9 inh: inhibitors of AF4 peptide binding to AF9, primary screen, biochemical, AlphaScreen, biotin-AF4 peptide, FLAG-AF9, single point; inhibition, % at 10 µM; AID 651704, 2012; 350,000 compounds, 0.47% hits; Protein AF-9 (Homo sapiens), P42568;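 active = every replicate reaching a set inhibition limit, whatever the replicate mean, cut at about 25% in these data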;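 note: 0% = plate neutral control median and 100% = total signal loss; the record names both 10 and 1 µM as test concentration; the first replicate is given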
# Target sequence (P42568 whole entry, looked up): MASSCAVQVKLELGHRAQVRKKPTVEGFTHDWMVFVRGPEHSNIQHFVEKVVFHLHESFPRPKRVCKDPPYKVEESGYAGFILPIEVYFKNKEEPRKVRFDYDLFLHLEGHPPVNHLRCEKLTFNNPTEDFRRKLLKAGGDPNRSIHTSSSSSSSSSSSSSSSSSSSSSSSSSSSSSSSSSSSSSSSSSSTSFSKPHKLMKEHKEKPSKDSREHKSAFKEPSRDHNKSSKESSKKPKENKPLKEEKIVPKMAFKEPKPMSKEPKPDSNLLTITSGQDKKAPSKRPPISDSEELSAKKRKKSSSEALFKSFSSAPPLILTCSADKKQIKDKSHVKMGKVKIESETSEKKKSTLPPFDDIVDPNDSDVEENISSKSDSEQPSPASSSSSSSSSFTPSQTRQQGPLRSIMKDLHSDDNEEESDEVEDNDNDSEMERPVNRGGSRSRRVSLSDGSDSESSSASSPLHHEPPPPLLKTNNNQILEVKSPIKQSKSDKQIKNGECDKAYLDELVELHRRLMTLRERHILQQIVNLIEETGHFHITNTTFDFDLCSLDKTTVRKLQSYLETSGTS
# rRNA inh HTS OD600: second read-out of rRNA inh HTS, no call of its own (marks repeat the call); OD600 change, %; measured here: OD600 growth;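 optical density of the mix in the first replicate; 0 = DMSO median and -100 = no signal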
# rRNA inh HTS RFP: also measured in rRNA inh HTS; calls as there; RFP signal change, %; measured here: RFP humanized mutant strains;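 first replicate; 0 = DMSO median and -100 = no signal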
# Numbers without * were called inactive; i = inactive; . = not tested or not shown; & = joins results of further samples.
# Sequence of screens: rRNA inh HTS RFP	MLL AF4-AF9 inh	rRNA inh HTS	FGF22 binding	rRNA inh HTS OD600
- Cc1ccccc1-n1c(C)nnc1SC(C)C(=O)NCC1CCCO1 (configuration not stated)
 : .	0.4	.	i	.
- Cc1cc(C)n2c(SCC(=O)N(CCC#N)c3ccc4c(c3)OCCO4)nnc2n1
 : .	-0.5	.	i	.
- COCC(=O)Nc1ccc2c(c1)C(=O)N(C)[C@H]1CC[C@@H](CC(=O)NC3CCCC3)O[C@@H]1CO2
 : -0.6	.	1.0	i	2.8
- C[C@@H]1CN([C@@H](C)CO)C(=O)c2cc(NC(=O)Nc3ccc(C(F)(F)F)cc3)ccc2O[C@@H](C)CCCCO[C@@H]1CN(C)S(=O)(=O)c1ccc(Cl)cc1
 : 0.9	.	1.7	i	11.0
- C[C@H]1CN([C@@H](C)CO)C(=O)Cc2cc(NC(=O)CCC(F)(F)F)ccc2O[C@@H]1CN(C)Cc1ccc(Oc2ccccc2)cc1
 : 2.5	.	-3.3	i	-8.7
- COc1ccc(CNC(=O)C[C@H]2C[C@H]3c4cc(NC(=O)CC5CC5)ccc4O[C@H]3[C@H](CO)O2)cc1
 : -0.4	.	4.5	i	-7.4
- COc1ccc(S(=O)(=O)N2C[C@H](O)COC[C@H]3O[C@@H](CC(=O)N[C@@H]4CCN(Cc5ccccc5)C4)CC[C@@H]32)cc1
 : 0.9	.	3.2	i	18.2
- COc1ccc(S(=O)(=O)N(C)C[C@H]2Oc3ccc(NS(=O)(=O)c4ccc(Cl)cc4)cc3CC(=O)N([C@@H](C)CO)C[C@@H]2C)cc1
 : 2.9	.	-2.7	i	1.5
- C[C@H](CO)N1C[C@H](C)[C@@H](CN(C)C(=O)Nc2ccc(F)cc2)Oc2c(NC(=O)Nc3ccc4c(c3)OCO4)cccc2C1=O
 : 1.0	.	-3.2	i	-7.5
- COCC(=O)Nc1ccc2c(c1)C(=O)N(C)[C@@H]1CC[C@@H](CC(=O)NCc3cccc(F)c3)O[C@H]1CO2
 : -1.6	.	2.7	i	2.8
- C[C@@H]1CN([C@@H](C)CO)C(=O)c2cc(NC(=O)c3ccccc3)ccc2O[C@@H](C)CCCCO[C@H]1CN(C)Cc1ccccc1
 : 0.1	.	0.9	i	4.9
- C[C@@H]1CN([C@@H](C)CO)C(=O)c2cc(NC(=O)c3ccncc3)ccc2O[C@@H](C)CCCCO[C@H]1CN(C)S(C)(=O)=O
 : -1.0	.	-0.6	i	1.5
- CN1C(=O)c2cc(NC(=O)c3ccc(F)c(F)c3)ccc2OC[C@@H]2O[C@@H](CC(=O)O)CC[C@H]21
 : -0.2	.	3.1	i	5.7
- CNC(=O)C[C@H]1CC[C@H]2[C@H](COc3ccc(NC(=O)c4cc(C)on4)cc3C(=O)N2C)O1
 : -1.0	.	0.7	i	1.4
- CNC[C@H]1OCCCC[C@@H](C)Oc2ccc(NS(=O)(=O)c3cn(C)cn3)cc2C(=O)N([C@H](C)CO)C[C@H]1C
 : -6.4	.	-0.1	i	0.3
- C[C@H](CO)N1C[C@H](C)[C@H](CN(C)C(=O)Nc2ccc3c(c2)OCO3)Oc2ccc(NC(=O)Nc3ccc(C(F)(F)F)cc3)cc2CC1=O
 : 1.0	.	-4.7	i	-8.7
- CN(C)CC(=O)Nc1ccc2c(c1)[C@@H]1C[C@H](CC(=O)NCc3ccccc3F)O[C@H](CO)[C@@H]1O2
 : 3.0	.	2.0	i	2.4
- CO[C@H]1CN(C)C(=O)c2cc(NS(C)(=O)=O)ccc2OC[C@@H](C)N(C)C[C@H]1C
 : -3.3	.	-0.6	i	4.5
- Cc1nn(C)cc1NC(=O)C[C@H]1CC[C@H]2[C@@H](COc3ccc(NC(=O)C(C)C)cc3C(=O)N2C)O1
 : -1.4	.	2.0	i	0.1
- CC(C)[C@H](NC(=O)c1ccco1)C(=O)N1CCC[C@H]1C(=O)NCc1ccccc1
 : 6.8	.	-3.1	i	-5.3
- C[C@@H]1CCCCO[C@@H](CN(C)CC2CCCCC2)[C@H](C)CN([C@@H](C)CO)C(=O)c2cc(NC(=O)CCC(F)(F)F)ccc2O1
 : -5.8	.	-5.2	i	-0.7
- O=C(c1ccc(F)cc1)N1C[C@@H]2N[C@H](C1)C2c1ccc(-c2cccnc2)cc1 (some centres not stated)
 : -0.2&-2.8	.	2.2&10.2	i	5.5&10.9
- Cc1noc(C)c1S(=O)(=O)N(C)C[C@H]1Oc2ccc(NC(=O)Nc3ccc(C(F)(F)F)cc3)cc2CC(=O)N([C@H](C)CO)C[C@@H]1C
 : -1.8	.	3.5	i	2.8
- O=C(C[C@@H]1CC[C@H]2[C@@H](COC[C@@H](O)CN2C(=O)c2ccccc2F)O1)NCc1ccc(-c2ccccc2)cc1
 : 4.2	.	-2.4	i	-13.8
- CC(C)C#Cc1ccc2c(c1)O[C@@H](CN(C)C(=O)c1ccccc1)[C@H](C)CN([C@@H](C)CO)S2(=O)=O
 : 14.1	.	-2.7	i	-18.0
- CCCCNC(=O)c1nc(C2CCN(S(=O)(=O)c3ccc(OC(F)(F)F)cc3)CC2)oc1-c1ccccc1
 : -5.8	.	-8.5	i	-6.9
- O=C(NCc1ccccc1)[C@@H]1CCCN1C(=O)[C@@H](NS(=O)(=O)c1ccc(F)cc1F)c1ccccc1
 : 6.9	.	-3.8	i	-2.0
- COc1ccc2c3c(n(C)c2c1)[C@@H](CO)N(C(=O)C1CCCC1)CC31CCN(C)CC1
 : -0.4	.	4.1	i	14.8
- COc1ccc(S(=O)(=O)N(C)C[C@H]2Oc3ccc(NS(=O)(=O)c4ccc(Cl)cc4)cc3CC(=O)N([C@@H](C)CO)C[C@H]2C)cc1
 : 1.9	.	-0.7	i	-6.3
- COc1ccc(CN2C(=O)CN(S(C)(=O)=O)CC2(C)C(=O)Nc2c(C)cccc2C)cc1OC (configuration not stated)
 : 1.7	.	6.0	i	12.1
- C[C@@H]1CCCCO[C@H](CN(C)C(=O)c2ccncc2)[C@H](C)CN([C@H](C)CO)C(=O)c2cc(NC(=O)NC3CCCCC3)ccc2O1
 : -1.0	.	-1.9	i	1.2
- C[C@@H]1CCCCO[C@@H](CN(C)S(=O)(=O)c2ccc(F)cc2)[C@@H](C)CN([C@@H](C)CO)C(=O)c2cc(NC(=O)Nc3ccc(F)cc3)ccc2O1
 : -1.4	.	0.0	i	3.9
- O=C(C[C@H]1CC[C@@H]2[C@H](COC[C@@H](O)CN2Cc2ccc(C(F)(F)F)cc2)O1)N1CCc2ccccc2C1
 : 14.0	.	-23.1	i	-56.5
- COCC(=O)Nc1ccc2c(c1)C(=O)N(C)[C@H]1CC[C@@H](CC(=O)O)O[C@H]1CO2
 : -0.3	.	5.8	i	8.8
- C=CCN1C(=O)[C@]2(OCCC=C[C@H]2C)c2cc(OC)ccc21
 : -1.5	.	7.2	i	17.1
- CN(Cc1ccc2c(c1)CCCN2C)C(=O)[C@@H](Cc1ccccc1)NC(=O)[C@H]1O[C@@H](n2ccc(=O)[nH]c2=O)[C@H](O)[C@@H]1O
 : 2.4	.	2.3	i	-0.4
- C[C@H](CO)N1C[C@H](C)[C@H](CN(C)S(=O)(=O)c2cccs2)OCCCC[C@H](C)Oc2ccc(NC(=O)Nc3cccc4ccccc34)cc2C1=O
 : -2.0	.	1.5	i	10.1
- CN1C(=O)c2cc(NC(=O)Cc3ccccc3)ccc2OC[C@H]2O[C@H](CC(=O)NCc3ccc(Cl)cc3)CC[C@H]21
 : 2.0	.	-3.0	i	-6.5
- Cc1cc(NC(=O)Cc2c(C)[nH]c3ccccc23)ccc1Oc1cccnc1
 : 7.5	.	6.5	i	8.0
- C[C@@H]1CN(C(=O)OC(C)(C)C)CCN1c1ccc(N2CCS(=O)(=O)CC2)c(C#N)c1
 : 3.0	.	15.6	i	13.6
- Cc1cc(Nc2ccc(Cl)c(C(F)(F)F)c2)cc(=O)n1-c1ccc(Cl)c(C(F)(F)F)c1
 : 3.9	.	1.3	i	3.4
- CN(C)CC(=O)N1CC[C@H]2[C@@H]1c1cc(-c3ccccc3F)ccc1N(C)[C@H]2CO
 : 1.1	.	6.2	i	10.8
- O=S(=O)(c1cccc(F)c1)N1CC[C@@H]2[C@H]1c1cc(-c3cccc(F)c3)ccc1N[C@@H]2CO
 : 7.4	.	-6.3	i	-33.5
- COc1ccccc1C(=O)N1CCC2CCN(C(=O)OC(C)(C)C)C2C1 (configuration not stated)
 : -4.8	.	-5.9	i	-6.1
- C[C@H](CO)N1C[C@H](C)[C@@H](CN(C)Cc2ccc3c(c2)OCO3)OCCCC[C@H](C)Oc2ccc(NC(=O)Cc3ccccc3)cc2C1=O
 : 0.1	.	-2.9	i	-8.2

# 2 compounds drawn at random from those above:
# Sequence of screens: rRNA inh HTS RFP	MLL AF4-AF9 inh	rRNA inh HTS	FGF22 binding	rRNA inh HTS OD600
- C=CCN1C(=O)[C@]2(OCCC=C[C@H]2C)c2cc(OC)ccc21
 : -1.5	.	7.2	i	17.1
- CN(C)CC(=O)N1CC[C@H]2[C@@H]1c1cc(-c3ccccc3F)ccc1N(C)[C@H]2CO
 : 1.1	.	6.2	i	10.8

# The main list resumes; the three compounds before the break are reprinted first.
# Sequence of screens: rRNA inh HTS RFP	MLL AF4-AF9 inh	rRNA inh HTS	FGF22 binding	rRNA inh HTS OD600
- O=S(=O)(c1cccc(F)c1)N1CC[C@@H]2[C@H]1c1cc(-c3cccc(F)c3)ccc1N[C@@H]2CO
 : 7.4	.	-6.3	i	-33.5
- COc1ccccc1C(=O)N1CCC2CCN(C(=O)OC(C)(C)C)C2C1 (configuration not stated)
 : -4.8	.	-5.9	i	-6.1
- C[C@H](CO)N1C[C@H](C)[C@@H](CN(C)Cc2ccc3c(c2)OCO3)OCCCC[C@H](C)Oc2ccc(NC(=O)Cc3ccccc3)cc2C1=O
 : 0.1	.	-2.9	i	-8.2
- CN1CCCCC(NC(=O)c2ccccn2)C1=O (configuration not stated)
 : 1.7	.	10.6	i	11.6
- Cc1cc(-c2cc(NC(=O)Cc3c[nH]c4ccccc34)ccc2N(C)c2cccnc2)ccc1F
 : 8.4	.	-11.0	i	-16.2
- C[C@H]1CN([C@@H](C)CO)C(=O)Cc2cc(NC(=O)CCC(F)(F)F)ccc2O[C@H]1CN(C)Cc1ccc(Oc2ccccc2)cc1
 : 2.0	.	-0.1	i	-0.7
- C[C@@H]1CCCCO[C@H](CN(C)C(=O)NC2CCCCC2)[C@@H](C)CN([C@@H](C)CO)C(=O)c2cc(NC(=O)c3ccccc3)ccc2O1
 : -2.1	.	2.7	i	0.7
- COC(=O)C1=C(C)N(Cc2cccc(C(F)(F)F)c2)C(=NCc2ccccc2)NC1c1ccc(Cl)cc1 (configuration not stated)
 : -15.9	.	-51.5	i	-79.1
- C[C@@H]1CN([C@@H](C)CO)C(=O)c2cc(NC(=O)c3ccccc3)ccc2O[C@@H](C)CCCCO[C@@H]1CN(C)Cc1ccccc1
 : 4.9	.	0.1	i	-7.9
- C[C@@H]1CN([C@@H](C)CO)C(=O)Cc2cc(NS(C)(=O)=O)ccc2O[C@H]1CN(C)S(=O)(=O)c1cn(C)cn1
 : 0.3	.	6.4	i	10.1
- Fc1ccc(CN2[C@@H]3CNC[C@H]2C3c2ccc(-c3ccccc3)cc2)cc1 (some centres not stated)
 : 3.0&-12.5	.	4.5&-59.0	i	16.6&-72.2
- COc1ccc(S(=O)(=O)N(C)C[C@@H]2Oc3ccc(NS(=O)(=O)c4ccc(C)cc4)cc3CC(=O)N([C@@H](C)CO)C[C@H]2C)cc1
 : 0.8	.	-4.5	i	-4.1
- C[C@@H]1CN([C@H](C)CO)C(=O)c2cc(NS(=O)(=O)c3cn(C)cn3)ccc2O[C@@H](C)CCCCO[C@@H]1CN(C)Cc1ccc2c(c1)OCO2
 : 2.4	.	3.7	i	6.3
- Cc1cccc(C)c1N1C(=O)c2ccccc2NC(=O)C1C(=O)NCCOc1ccccc1 (configuration not stated)
 : 2.6	.	-0.4	i	-7.4
- CCCN1CCCCC(NC(=O)c2ccc(-c3ccccc3)cc2)C1=O (configuration not stated)
 : 2.3	.	-15.9	i	-19.8
- CN1c2ccc(-c3ccccc3F)cc2[C@H]2[C@H](CCN2C(=O)c2cccc(F)c2)[C@H]1CO
 : 27.2	.	-11.1	i	-38.7

# Part of the list above, limited to FGF22 binding, rRNA inh HTS RFP and rRNA inh HTS OD600:
Molecule | FGF22 binding | rRNA inh HTS RFP | rRNA inh HTS OD600
C[C@H]1CN([C@@H](C)CO)C(=O)Cc2cc(NC(=O)CCC(F)(F)F)ccc2O[C@@H]1CN(C)Cc1ccc(Oc2ccccc2)cc1 | i | 2.5 | -8.7
COc1ccc(CNC(=O)C[C@H]2C[C@H]3c4cc(NC(=O)CC5CC5)ccc4O[C@H]3[C@H](CO)O2)cc1 | i | -0.4 | -7.4

# High-throughput results as filed in PubChem BioAssay.

# The list is partial; the hit share may differ from the screen's.
